# Screening results from PubChem.
# CDC25B-CDK2 inh – human CDC25B-CDK2/CyclinA binding inhibition | P30305+P24941 | HTRF CDC25B-CDK2/CyclinA binding, anti-His/anti-Flag; hits give high values | z-score (test concentration not listed) | hit rate 0.72% among 94,000 | AID 1259370;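 further: score is relative to mean and SD of negative controls; strong numbers were not always called active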
# HIV TAR-Tat – HIV-1 TAR-Tat binding disruption; HIV-1 TAR RNA, Tat peptide displacement FRET; hits give high values; z-score (concentration not given with the values); hit rate 0.6% among 100,000; AID 1259389;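 further: score is relative to mean and SD of negative controls; some compounds called inactive have numbers as strong as hits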
# Numbers without * were called inactive; nt = not tested or not shown.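 How the source made its calls: active means z-score from 3 up in half or more of its runs; inactive means the rest.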
SMILES,CDC25B-CDK2 inh,HIV TAR-Tat
CCOc1ccc2nc(Nc3ncc4c(n3)CC(c3ccco3)CC4=O)nc(C)c2c1 (centres undefined),3.4,14*
Cc1c(N2CCN(S(=O)(=O)c3cnc[nH]3)CC2)c(=O)n(C)c(=O)n1-c1ccccc1,nt,1.7
CCCCCOC(=O)C1=C(C)NC2=C(C(=O)CC(C)(C)C2)C1c1cccc(O)c1 (centres undefined),0.33,0.67
CCCN(CCC)S(=O)(=O)c1ccc(C(=O)N2CCN(C)CC2)cc1,-1.3,nt
CCCSCCCN1C(=O)c2cc3sccc3n2CC1(C)C(=O)NC1CCC(C)CC1 (centres undefined),-2.4,2.5
COc1ccc(S(=O)(=O)OCC(F)([N+](=O)[O-])[N+](=O)[O-])cc1Br,4.2*,nt
CCN(CC)CCn1c2ccccc2c2cnc(N)c(C#N)c21,-0.82,nt
CC1(C)Cc2ccccc2C(NC(=O)Nc2ccc(Br)cc2)=C1C#N,-0.42,1.6
Cc1cccc(C)c1NC1=NC2(CCCCC2)N=C(N)N1,-1.6,nt
C=CCOc1cccc(-c2nc3c(c(=O)[nH]2)Cc2ccccc2O3)c1,-0.85,2
COc1ccc(C2c3c(-c4c(C)cc(C)cc4O)n[nH]c3C(=O)N2CCO)cc1OC (centres undefined),-2.1,0.33
COc1cccc(Nc2nc(Nc3ccc(F)cc3)c3cnn(C)c3n2)c1,nt,1.1
O=C(Cn1cnc(S(=O)(=O)N2CCCCC2)c1)N1CCc2ccccc2C1,nt,1.4
CCn1c(C(=O)NCc2c(C)nn(C)c2C)cc2cc(S(=O)(=O)N(C)C)ccc21,nt,0.16
Cc1ccc(-n2c(=O)[nH]c3c(sc4ncccc43)c2=O)cc1Cl,-3.8,-0.88
Cc1ccnc(NS(=O)(=O)c2ccc(N)cc2)c1,-0.02,2.5
CC1CCC(C(C)C)C(OCC(O)CN2CC(C)OC(C)C2)C1 (centres undefined),-1.1,0.91
CN(C)Cc1ccc(O)c(CN(C)C)n1,-0.53,0.88
COc1cccc(CN2CCc3nc(N4CCN(c5ncccn5)CC4)ncc3C2)c1OC,nt,0.16
CC1=C(c2ccccc2)S(=O)(=O)NC1=NCc1ccc(OC(C)C)cc1,-8.7,-0.29
Cc1noc(C)c1CCNC(=O)CN1CCSc2ccccc21,nt,0.68
CCC(=O)Nc1ccc2nc(SCc3cc(=O)c4cc(C)cc(C)c4[nH]3)sc2c1,nt,1.1
CSc1nc2c(sc3ccccc32)c(=O)n1CCCC(=O)NCC1CCCO1 (centres undefined),0.63,nt
CN(C)/C=C(\C#N)c1ccc(OCc2ccc(Cl)c(Cl)c2)cc1,-2.2,nt
c1coc(C2Nc3ccccc3-c3nc4ccccc4n32)c1 (centres undefined),-3.2,nt
O=C(NCc1ccco1)c1ccc(-n2ccc3ccccc32)s1,nt,0.51
O=c1c2c3c(sc2n(Cc2cc(=O)n4ccccc4n2)c(=O)n1-c1ccc(Cl)cc1)CCC3,-2.4,nt
O=S(=O)(NNc1c(Cl)cc(Cl)cc1Cl)c1ccc(Cl)cc1,-2.3,nt
NS(=O)(=O)c1cccc2c1c([N+](=O)[O-])cc1nc(O)c(O)nc12,-2.9,nt
O=C(C1CCCN(S(=O)(=O)N2CCOCC2)C1)N1CCN(c2ccc(F)cc2)CC1 (centres undefined),nt,-0.23
Cn1nnc2sc(-c3ccccc3)cc2c1=O,-1.6,0.86
O=C(NCc1ccco1)C1CCCN1S(=O)(=O)c1ccc(-c2ccc(=O)[nH]n2)s1 (centres undefined),nt,2.2
CCOc1cccc2c1OC(c1ccccc1Cl)N1N=C(c3ccco3)CC21 (centres undefined),-1.7,nt
COCCNc1cc(N(CCO)Cc2ccccc2)c2noc3c2c1C(=O)c1ccccc1-3,-1.8,-2.3
O=C(Cn1ncc2c(Cl)cccc21)NCCCN1CCCC1,0.53,0.45
COCC(=O)Nc1nc2nc(C)c(Cl)c(C)n2n1,-1.4,-0.2

# Rewritten with values under each structure: entries from further up
# Results follow in this order: CDC25B-CDK2 inh | HIV TAR-Tat
> COCCNc1cc(N(CCO)Cc2ccccc2)c2noc3c2c1C(=O)c1ccccc1-3
→ -1.8 | -2.3
> O=C(Cn1ncc2c(Cl)cccc21)NCCCN1CCCC1
→ 0.53 | 0.45
> COCC(=O)Nc1nc2nc(C)c(Cl)c(C)n2n1
→ -1.4 | -0.2

# Further records follow.
SMILES,CDC25B-CDK2 inh,HIV TAR-Tat
COc1ccc(N2CCN(c3c(S(=O)(=O)c4ccccc4)cnc4ccc(OC)cc34)CC2)cc1,-0.56,-0.19
N/C(CS(=O)(=O)c1cccs1)=N\OC(=O)Nc1ccc(Cl)cc1,-2.2,nt
OC(CCc1ccccc1)(c1ccccc1)C(CN1CCOCC1)c1ccccc1 (centres undefined),1.9,1.1
CCCN1CCN(CCCN=C2NS(=O)(=O)C(c3ccc(Cl)cc3)=C2C)CC1,-1.1,1.4
Cc1ccc(-c2cc(N)n(S(=O)(=O)c3ccccc3)n2)cc1,-0.85,0.29
O=C(CSc1n[nH]c(=O)n1C1CC1)c1ccc(N2CCOCC2)cc1,-0.13,nt
Cc1ccc(C2OC3(C(=O)c4ccccc4C3=O)C3C(=O)N(c4ccccc4Cl)C(=O)C23)cc1 (centres undefined),0.63,-0.43
Cc1noc2ncnc(N3CCCC(C(=O)N4CCN(c5ccc(F)cc5)CC4)C3)c12 (centres undefined),nt,-0.01
Cc1ccc(C2Nc3ccccc3NC3=C2C(=O)CC(C)(C)C3)o1 (centres undefined),-0.37,nt
Cc1ccc(C)c(Cn2c(-c3ccco3)nc3ccccc32)c1,3.6,-3.7
O=C1C(c2ccccc2)c2ccccc2N1Cc1ccccc1 (centres undefined),-1.4,nt
CC(=O)N1c2ccc(S(=O)(=O)N3CCCC3C(=O)N3CCn4c3nc3ccccc34)cc2CC1C (centres undefined),nt,0.96
Cc1cccc(Cc2c(C)[nH]n(-c3nc4ccccc4[nH]3)c2=O)c1,nt,1.9
O=C(CCc1nnc2ccc(NCc3ccco3)nn12)Nc1ccccc1F,nt,0.69
CCCOc1ccccc1C1C(C(=O)OCC)=C(C)NC2=C1C(=O)CC(C)(C)C2 (centres undefined),-2.1,-0.15
Cc1cc(N2CCN(CCO)CC2)n2nc(-c3ccc(C(C)(C)C)cc3)nc2n1,0.25,0.97
COc1ccc(Nc2ncnc3onc(-c4ccccc4OC)c23)cc1OC,nt,1.5
CCOC(=O)N1CCC(NS(=O)(=O)c2ccc3c(c2)oc(=O)n3C)CC1,-1.4,-0.2
CC(=O)OCC(CCn1cnc2cnc(N)nc21)COC(C)=O,-0.82,-0.24
CCc1nnc(SCc2nc(-c3cccc(Br)c3)oc2C)c2cc3occc3n12,nt,2.9
CCCNc1nc(N2CCCCC2)nc2c1cnn2C,nt,0.08
Cn1nc(C(=O)NCCCN2CCCCC2)c2c1-c1ccccc1SC2,-3.2,1.3
CCSCCOC(=O)C1=C(C)NC2=C(C(=O)CCC2)C1c1ccc(C)o1 (centres undefined),nt,1.4
COC(=O)c1cccc(CSc2nnc(-c3ccco3)n2-c2ccccc2)c1,1.8,nt
CCOCCCNC(=O)c1ccc2c(=O)[nH]c3c(C(=O)NC4CCCC4)sc(=S)n3c2c1,nt,2
Cc1ccc(-c2cc3nccc(-c4ccc5c(c4)N(C)C(=O)CO5)n3n2)cc1,3.5,0.56
CCOC(=O)c1c(S(=O)(=O)N2CCCC(C(=O)NC3CCCCC3)C2)c(C)n(CC)c1C (centres undefined),nt,0.92
Cc1cc(C)cc(NC(=O)N2CCOc3ccc(Cl)cc32)c1,nt,4.3
CC1=C(C)CC(C(=O)N2CCN(Cc3c(F)cccc3Cl)CC2)C(C(=O)O)C1 (centres undefined),-2.9,nt
CCCCC#Cc1ccc(C(=O)NNC(=S)NC)o1,-1.4,nt
Cc1nn2c(=O)cc(CSc3nnc(-c4ccc(F)cc4)o3)nc2s1,-0.08,-0.37
Cc1cc2c(NS(=O)(=O)c3ccc(F)cc3)cccc2nn1,-0.64,nt
Cn1c(CNC(=O)CSc2nc(-c3ccccc3)nc3cc(=O)[nH]n23)nc2ccccc21,nt,1.2
CCOC(=O)N1CCN(C(=O)Cn2cc3c(n2)-c2c(oc(C(=O)N4CCCC4)c2C)CC3)CC1,nt,3.4
COc1cccc(Cn2cc(C(=O)c3ccc(F)cc3)c(=O)c3cc4c(cc32)OCO4)c1,-2.2,-0.22
O=C(Cn1ncn2nc(-c3ccco3)cc2c1=O)NCc1cccc(Br)c1,-7.6,-3.5
O=C(Nc1ccno1)NN1CCOCC1,0.18,nt
COc1cc(OC)c(NC(=O)Cn2cnc3c(nc4n3CCCCC4)c2=O)cc1Cl,nt,-1.8
CCOc1cc(/C=C2\N=C(c3ccccc3)OC2=O)ccc1OS(=O)(=O)c1ccccc1[N+](=O)[O-],-1.8,nt
C=C1[C@H]2CC[C@@]3(C)[C@H](c4ccoc4)OC(=O)C[C@]13O[C@H]1C[C@@H](O)C(C)(C)[C@H](CC(=O)OC)[C@]12C,nt,0.37
CCCCC(=O)N(c1ccc2oc(=O)sc2c1)S(=O)(=O)c1cccs1,-4.5,3.7
N#C/C(=C\Nc1cc(C(F)(F)F)cc(C(F)(F)F)c1)C(=O)Nc1ccc(Cl)cc1,-1.3,nt
CCCOC(=O)c1cccc(N2CC(O)=C(c3nc4ccccc4s3)C2=N)c1,0.32,1.1
COc1ccc(C2C(C(=O)OC3CCCCC3)=C(C)NC3=C2C(=O)CC(C)(C)C3)cc1OC (centres undefined),-1.3,1
Cc1sc2[nH]c(=O)n(CCc3ccccc3)c(=O)c2c1C,-1.2,nt
COc1ccccc1-n1nnc2c(=O)[nH]cnc21,-1.7,2.8
COc1ccc(-c2noc(-c3cc(C(C)C)[nH]n3)n2)cc1,nt,-1.5
NC(=O)C1CCN(c2ncnc3c2nc2n3CCCC2)CC1,nt,1.1
N#Cc1cc2c(nc1SCC(=O)Nc1ccc(Cl)cc1)CCCC2=O,-1.1,1.3
c1ccc(-n2nnnc2CSc2nc3ccccc3[nH]2)cc1,0.27,-0.16
C=CCOc1ccc2oc(=O)cc(C)c2c1,-0.67,nt
Cc1nc2sc(C(c3cccc(Cl)c3)N3CC(C)OC(C)C3)c(O)n2n1 (centres undefined),-0.83,nt
COc1ccc(NS(=O)(=O)c2c(C)nc3scc(C)n3c2=O)cc1Cl,-0.27,1.9
COc1ccc(C2=Nn3c(nnc3-c3cccc(OC)c3)SC2)cc1,nt,0.04
CCOCCCNc1nc2c(S(=O)(=O)c3ccc(C)c(C)c3)nnn2c2ccc(Cl)cc12,-2.2,-0.88
CC1CCN(S(=O)(=O)c2ccc(N3C(=O)c4ccccc4C3=O)cc2)CC1,-0.27,nt
O=C(Nc1cccc(Cl)c1)OCc1ccc2c(c1)OCO2,-1,-0.07
Cc1ccc(C)c(NC(=O)c2cc(=O)c3cc(C)cc(C)c3o2)c1,-1.3,1.4
Cc1ccc(CN(C(=O)COc2ccc(Cl)cc2)C2CCS(=O)(=O)C2)o1 (centres undefined),-1.5,1.9
CCc1ccc(CN(C(=O)c2cc(=O)c3cc(C)cc(C)c3o2)C2CCS(=O)(=O)C2)cc1 (centres undefined),2.6,0.32

# Single records, from the list above. Values in the order: CDC25B-CDK2 inh	HIV TAR-Tat
# `CCOC(=O)N1CCC(NS(=O)(=O)c2ccc3c(c2)oc(=O)n3C)CC1` is listed with -1.4	-0.2
# `Cc1nc2sc(C(c3cccc(Cl)c3)N3CC(C)OC(C)C3)c(O)n2n1` (centres undefined) is listed with -0.83	nt
# `Cc1c(N2CCN(S(=O)(=O)c3cnc[nH]3)CC2)c(=O)n(C)c(=O)n1-c1ccccc1` is listed with nt	1.7
# `CCOc1cccc2c1OC(c1ccccc1Cl)N1N=C(c3ccco3)CC21` (centres undefined) is listed with -1.7	nt
# `Cc1noc(C)c1CCNC(=O)CN1CCSc2ccccc21` is listed with nt	0.68

# New compounds follow
SMILES,CDC25B-CDK2 inh,HIV TAR-Tat
COCCNC(=O)C1=CC(c2cc(OC)ccc2OC)=NS(=O)(=O)N1C,-2,1.9
O=C(CSc1nc2c([nH]c3ccccc32)c(=O)n1-c1ccccc1)N1CCOCC1,nt,1.4
Cc1ccccc1N1C(=O)CC(c2cn(C)c3ccccc23)C1=O (centres undefined),-2,-0.59
CCOC(=O)c1c(C)oc2nc(C)nc(NCc3ccc4c(c3)OCO4)c12,nt,-0.61
CCOC(=O)Cc1nnc(-c2cc(OC)cc(OC)c2)o1,1.2,1.4
CCC(C)NC(=O)c1cnn2c3c(cnc12)CCCCCC3 (centres undefined),nt,0.05
Cc1nn(C(C)C(=O)Nc2ccccc2F)c(=O)c2c1sc1ccccc12 (centres undefined),0.34,1.2
Cc1ncc([N+](=O)[O-])n1Cc1ccccc1F,0.25,-0.42
CC(C)NC(=O)NC1COc2ccccc2C1 (centres undefined),nt,-0.21
CCN(CC)S(=O)(=O)c1cc(C)cc(S(=O)(=O)c2ccc(Cl)cc2)c1C,-1.3,2.1
Cc1ccc(NC(=O)Nc2c(C)[nH]c(=O)[nH]c2=O)cc1Cl,-1.8,2.1
N/C(=N\OC(=O)c1cnc2n(c1=O)CCS2)c1ccc(C(F)(F)F)cc1,-2.2,nt
CC1=CC(C)C(C(=O)O)C(C(=O)Nc2cccnc2)C1 (centres undefined),-0.77,1.1
CCC(C(=O)Nc1ccc2c(c1)OCCO2)n1c2ccccc2c2nc(=O)cc(C)n21 (centres undefined),3.9,0.16
Cn1ncc2c(N3CCOCC3)nc(NCCN3CCOCC3)nc21,nt,0.67
Fc1ccc(CNc2c(-c3ccc4c(c3)OCCO4)nc3ncccn23)cc1,nt,-2
O=C(CC1C(=O)NCCN1C(=O)Nc1ccc(OCc2ccccc2)cc1)Nc1ccc(F)cc1 (centres undefined),0.46,nt
CCCCCNC(=O)C1CCC(Cn2c(=O)c3sccc3n(CC(N)=O)c2=O)CC1 (centres undefined),nt,0.64
